Env fusion inh: inhibitors of HIV-1 Env-driven cell-cell fusion, primary screen, HeLa-JRFL effector, CEM21 target cells, luciferase; inhibition, % at 12.3 µM; 1.1% of 360,000 active; AID 651610, 2012;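 active means mean replicate inhibition score of at least 50 and every replicate individually at or above 50; inconclusive means only one of the two criteria met; inactive means mean below 50 and not all replicates reaching 50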;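 further: 0% = plate neutral controls and 100% = maraviroc near 300 nM; one replicate is shown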
UUG fidelity: modulators of yeast start codon fidelity, primary screen, whole organism, S. cerevisiae, single point, plate reader. AID 602363, 2012. S. cerevisiae UUG-firefly luciferase reporter, luminescence/redox ratio. 0.13% of 350,000 active. activity score, % at 18.7 µM;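 active means replicate mean at a twofold rise or more, about +100% in these data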;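 further: firefly luciferase made from a UUG start codon reports start codon fidelity; reporter light over untreated wells divided by growth signal over untreated wells; some hits fall short of that in this replicate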
eIF4H FP inh: human eIF4H binding inhibitors, primary screen, translation initiation inhibitor project, biochemical, uHTS, fluorescence polarization | AID 2012, 2009 | eIF4H fluorescence polarization binding assay | inhibition, % at 35 µM | 0.94% of 290,000 active;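 active means 50% or more with normal probe brightness, or confirmed in later tests; inconclusive means above 50% with abnormal brightness, or retests that disagree; inactive means below 50% or failed in later tests; about a fifth of its hits are not listed in these tables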;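 further: calls also rest on retests at 20 µM and on dose response follow-up; 0% = protein and probe with vehicle and 100% = probe without protein; strong numbers were not always called active; many hits fall short of the cut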
CSC inhib: cancer stem cell viability inhibitors, primary screen, luminescence; cancer stem cell-like cells viability; inhibition, % at 7.5 µM; 1.1% of 300,000 active;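 active means mean at 75% or more and at least half the replicates too; inconclusive means mean and replicates disagree; tested in HMLE shEcad cells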;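 further: 0% = median of negative and 100% = median of positive control wells; the first replicate is given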
PABP polyA inh: PABP poly(A) RNA binding inhibitors, primary screen, biochemical, fluorescence polarization, uHTS | inhibition, % at 35 µM | 1% of 290,000 active;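 active means 50% or more with normal probe brightness, or confirmed in later tests; inconclusive means above 50% with abnormal brightness, or retests that disagree; inactive means below 50% or failed in later tests; about a fifth of its hits are not listed in these tables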;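 further: calls also rest on retests at 20 µM and on dose response follow-up; controls were probe without protein and protein plus probe with vehicle; some compounds called inactive have numbers as strong as hits; many hits fall short of the cut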
MT1-MMP act inh: blockers of MT1-MMP proenzyme processing, primary screen, HT1080 RFP-PRO-GFP cells, GFP/RFP fluorescence; Matrix metalloproteinase-14 (Homo sapiens), P50281; GFP/RFP ratio fluorescence, overnight; percent of plate control window, DMSO zero; GFP/RFP ratio change, % at 20 µM; 0.061% of 360,000 active; AID 651647, 2012;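 active means GFP/RFP ratio change of at least 30% with cell ATP level not reduced by more than half and red fluorescence within 50% of control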; further: strong numbers were not always called active
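Test system: HT1080 RFP-PRO-GFP cells; Benchmarks: DMSO and RFP-L50D-GFP cell wells; Timing: cells overnight before dosing, compound overnight, 37 °C, 5% CO2; Compound: one 20 µM compound dose with 1% DMSO; Read-out: GFP/RFP fluorescence ratio.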
Rce1 inhib: yeast Rce1p protease inhibitors, primary screen, biochemical, fluorescence, cell-free homogeneous | yeast membranes, quenched prenylated peptide cleavage fluorescence | calls only | 0.27% of 290,000 active | AID 2563, 2010;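 active means fall in fluorescence gain of 50% or more versus controls, with final raw signal at or below 3038400; inconclusive means same 50% fall but final raw signal above 3038400; inactive means fall in fluorescence gain under 50%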;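 further: plate controls were neutral control wells for no effect and wells lacking membranes for full effect; tested at 10 µM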
Target sequence (Q03530 whole entry, looked up): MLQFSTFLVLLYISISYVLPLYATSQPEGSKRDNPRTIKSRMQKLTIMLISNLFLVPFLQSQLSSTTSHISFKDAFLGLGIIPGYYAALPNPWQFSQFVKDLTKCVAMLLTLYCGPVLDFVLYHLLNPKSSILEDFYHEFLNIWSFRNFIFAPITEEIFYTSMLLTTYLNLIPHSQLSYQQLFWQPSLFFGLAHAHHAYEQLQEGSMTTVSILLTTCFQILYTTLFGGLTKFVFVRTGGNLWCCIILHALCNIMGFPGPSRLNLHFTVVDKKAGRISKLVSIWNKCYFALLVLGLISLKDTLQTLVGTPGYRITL
MT1-MMP act inh RFP: further read-out of MT1-MMP act inh, marked with its call; RFP signal change, %; measured here: RFP expression control read;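 0 = vehicle wells; hits needed this value within 50% of zero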
The depositor's hits bear a star; i = inactive; ? = inconclusive; nt = not tested or not shown; + = active, no number; & = joins results of further samples; [ ] = remark or other dose. This is a subset (hit frequency here may not be typical).

SMILES	Env fusion inh	UUG fidelity	eIF4H FP inh	CSC inhib	PABP polyA inh	MT1-MMP act inh	MT1-MMP act inh RFP	Rce1 inhib
Nc1[nH]nc2nc3ccccc3cc12	7	-16	9	3	4	-5	-1	i
O=S(=O)(c1cc(F)ccc1F)N1CCC2(CC1)OCCN2S(=O)(=O)c1ccccc1	6	-10	nt	30	nt	4	-3	i
CC(Sc1nnc(-c2ccco2)n1C)C(=O)NC1CCCC1 (configuration not stated)	nt	-10	nt	-12	nt	1	3	nt
CCOC(=O)CC(=O)CSc1nnc(Cn2c(=O)sc3ccccc32)n1C	-8	-7	2	-9	0	-2	0	i
Cc1ccc(OCC(=O)Nc2nc(-c3ccccn3)cs2)c(C)c1	-19	-42	nt	nt	nt	-5	2	i
OCC[C@H]1C[C@H](O)[C@@H](O)[C@]2(CCCCO2)O1	-9	3	nt	4	nt	-1	2	i
Cc1cccc(N2CCN(C(=O)COc3cc4oc(=O)cc(C)c4cc3Cl)CC2)c1C	1	-26	-4	-8	-8	3	-2	i
CC1CCN(c2oc(-c3ccc(F)cc3)nc2C#N)CC1	-11	-12	-13	13	-7	-1	-1	+
O=C1CN(c2ccc(Cl)cc2)C2(CCCCC2)S1	12	nt	-5	-11	2	5	2	i
Cc1cc(S(=O)(=O)NCC(C)C)ccc1OCC(=O)NCC1CCCO1 (configuration not stated)	14	-1	-7	nt	-4	1	3	i
COc1ccccc1C(=O)Nc1ccnn1C1CCN(C(=O)c2ccoc2C)CC1	2	-1	1	-8	0	-4	0	i
Cc1ccccc1N1CC(C(=O)N2CCc3ccccc32)CC1=O (configuration not stated)	14	-12	nt	-9	nt	3	3	i
Cc1noc(C)c1CSc1nnc(-c2ccccc2F)n1CCc1ccccc1	nt	7	-14	-9	-2	1	1	i
NC(CC(=O)O)c1ccc(Br)cc1 (configuration not stated)	-13	nt	-2	11	11	2	0	i
Cc1ccc(C)c(N(C)C(=O)c2coc(=O)c3ccccc23)c1	-16	-4	-2	-6	-4	0	0	i
CC(=O)c1c(C)nc(-c2ccc(OCC(=O)Nc3ccccc3)cc2)n1O	-13	-14	-4	3	13	5	3	i
COc1cc(C(=O)NNC(=O)/C=C/c2ccccc2)cc(OC)c1OC	-17	nt	nt	10	nt	0	-2	nt
COC(=O)c1cn(C(=O)c2ccccc2Cl)c2ccccc12	0	nt	-2	32	-5	1	1	nt
O=C(N1CCN(c2ccccc2F)CC1)C12CC3CC(CC(C3)C1)C2	24	-11	0	22	-8	-2	-3	i
Cc1ccc(-n2nc(C(=O)NCc3ccc(C)o3)c3c4ccccc4n(C)c3c2=O)cc1	22	nt	-10	nt	-9	-2	-7	i
CNS(=O)(=O)c1cccc(C(=O)OCC(=O)N2CC(C)OC(C)C2)c1 (configuration not stated)	-8	-9	-17	2	1	1	2	i
Cc1ccccc1CC(=O)Nc1ccc2c(c1)c(=O)n(C)n2-c1ccccc1F	-34	-19	nt	nt	nt	-4	-2	nt
Cc1ccccc1CNC(=O)C(=O)NCC1CCCN1S(=O)(=O)c1cccs1 (configuration not stated)	nt	5	nt	nt	nt	-2	-2	i
O=C(Nc1ccccc1F)n1ncc2cc(Cl)ccc21	-3	4	-8	-5	-5	3	6	i
Cc1cc(Br)c(Cl)cc1NC(=O)CN1C(=O)C2C3CC(c4ccccc4)C(C3)C2C1=O (configuration not stated)	?	nt	9	80*	2	-4	-1	i

Record cards, from the list above.
CCOC(=O)CC(=O)CSc1nnc(Cn2c(=O)sc3ccccc32)n1C is listed as Env fusion inh: -8; UUG fidelity: -7; eIF4H FP inh: 2; CSC inhib: -9; PABP polyA inh: 0; MT1-MMP act inh: -2; MT1-MMP act inh RFP: 0; Rce1 inhib: i
O=C1CN(c2ccc(Cl)cc2)C2(CCCCC2)S1 is listed as Env fusion inh: 12; UUG fidelity: nt; eIF4H FP inh: -5; CSC inhib: -11; PABP polyA inh: 2; MT1-MMP act inh: 5; MT1-MMP act inh RFP: 2; Rce1 inhib: i

Rce1 inhib: hit marks shown above.
compound,Env fusion inh,UUG fidelity,MT1-MMP act inh,MT1-MMP act inh RFP,Rce1 inhib
CC1CCN(c2oc(-c3ccc(F)cc3)nc2C#N)CC1,-11,-12,-1,-1,+

Taken from the entries so far (five entries):
SMILES	Env fusion inh	UUG fidelity	eIF4H FP inh	CSC inhib	PABP polyA inh	MT1-MMP act inh	MT1-MMP act inh RFP	Rce1 inhib
Nc1[nH]nc2nc3ccccc3cc12	7	-16	9	3	4	-5	-1	i
O=S(=O)(c1cc(F)ccc1F)N1CCC2(CC1)OCCN2S(=O)(=O)c1ccccc1	6	-10	nt	30	nt	4	-3	i
CC(Sc1nnc(-c2ccco2)n1C)C(=O)NC1CCCC1 (configuration not stated)	nt	-10	nt	-12	nt	1	3	nt
CCOC(=O)CC(=O)CSc1nnc(Cn2c(=O)sc3ccccc32)n1C	-8	-7	2	-9	0	-2	0	i
Cc1ccc(OCC(=O)Nc2nc(-c3ccccn3)cs2)c(C)c1	-19	-42	nt	nt	nt	-5	2	i

The listing continues:
SMILES	Env fusion inh	UUG fidelity	eIF4H FP inh	CSC inhib	PABP polyA inh	MT1-MMP act inh	MT1-MMP act inh RFP	Rce1 inhib
CCN(CCNC(=O)C1CCCN(c2ncnc3c2nc2n3CCCCC2)C1)Cc1ccccc1 (configuration not stated)	-6	-5	-12	4	-4	-2	5	i
O=C1C2CC=CCC2C(=O)N1c1ccc(NCCc2ccc(Cl)cc2)c([N+](=O)[O-])c1 (configuration not stated)	4	-10	9	-5	3	4	-6	i
CCO[C@@H]1OC(C(=O)O)=C[C@H](c2csc3ccccc23)[C@H]1CCCO	-5[16.7 µM]	-5&-25	-7	-19	5	3	0	i
CCC(N)C12CC3CC(CC(O)(C3)C1)C2 (configuration not stated)	nt	-3	-4	-9	10	5	3	i
CN(C)S(=O)(=O)N1CCN(c2cc(Cl)ccc2Cl)CC1	-77	-11	-1	nt	1	-4	-2	i
COc1ccc(/C=C/C(=O)NC(=S)NNC(=O)Cc2cccs2)cc1OC	nt	-17	18	17	2	3	-3	i
